# Screening results from PubChem BioAssay.
# GIV Gai3 FP – inhibitors of GIV peptide binding to Galpha-i3, primary screen, biochemical, fluorescence polarization, FITC-GIV GBA peptide, rat Galphai3; Guanine nucleotide-binding protein G(i) subunit alpha-3 (Rattus norvegicus), P08753; 0.42% of 210,000 active; percent of control (FP), % (test concentration not listed); 90 min; active compounds read low; scaled: aluminum fluoride 0%, vehicle 100%;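 active = replicate mean at 85% of control or lower, very high polarization wells dropped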;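 also: lower values mean more displacement of the GIV peptide from Galpha-i3; wells of about 15 µL received 100 nL stock; the first replicate is given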
# Target sequence (P08753 whole entry, looked up): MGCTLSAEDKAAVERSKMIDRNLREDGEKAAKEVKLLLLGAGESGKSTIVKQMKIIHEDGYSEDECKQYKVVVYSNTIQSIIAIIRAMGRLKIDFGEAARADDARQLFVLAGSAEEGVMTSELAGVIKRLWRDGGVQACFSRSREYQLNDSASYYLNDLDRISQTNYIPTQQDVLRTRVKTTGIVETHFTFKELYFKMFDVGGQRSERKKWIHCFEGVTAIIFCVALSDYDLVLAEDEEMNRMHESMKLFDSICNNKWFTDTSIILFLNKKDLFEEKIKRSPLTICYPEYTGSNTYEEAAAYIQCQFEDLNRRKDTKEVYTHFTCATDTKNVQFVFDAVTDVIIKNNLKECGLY
# Sa growth 42C – S. aureus growth inhibition at 42 and 30 °C, primary screen, LtaS inhibitor project, RN4220, two temperatures | 0.53% of 170,000 active | relative growth, % (concentration not given with the values) | AID 720641, 2013 | OD600, 20 h, 42 °C; active compounds read low;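 active = growth at 42 °C up to 50% and 20 or more points under that at 30 °C, or under 10% at both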;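 also: 300 nL library stock went into each well; scaled to the means of positive and negative controls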
# HCMV NEC inh – inhibitors of HCMV UL50-UL53 interaction, biochemical, HTRF | HCMV UL50-UL53 nuclear egress complex (human cytomegalovirus) | normalized percent inhibition | inhibition, % (no concentration beside the values) | 0.15% of 190,000 active;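 active = both replicates at 50% or more, plus weaker picks with an unusually low signal ratio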;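 also: stock transfer was 100 nL into about 20 µL; 0% = negative control wells and 100% = wells with untagged competitor protein; inactives centre near -12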
# Sa growth 42C second temp – also measured in Sa growth 42C; calls as there; relative growth, %; measured here: growth at 30 °C;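 optical density after 20 h as mean of two plates; 100% = untreated growth and lower means inhibition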
# Starred values were filed as active, the others as inactive; . = not tested or not shown; & = joins results of further samples.
item	canonical_smiles	GIV Gai3 FP	Sa growth 42C
1	COc1ccccc1N1CCN(C(=O)c2ccc3c(c2)N(Cc2cc(C)ccc2C)C(=O)c2ccccc2S3(=O)=O)CC1	110	116
2	COc1ccccc1N1CCN(c2ccc(=O)n(CC(=O)NC3CC3)n2)CC1	106	.
3	CCOC(=O)c1c[nH]c2ccc(OCC)cc2c1=O	107	91
4	O=C(Nc1cccc(Br)c1)c1ccc(Nc2ccnc(-c3cccc(F)c3)n2)cc1	102	.
5	Fc1ccc(-c2nc(Nc3cccc(C(F)(F)F)c3)nc3c2COc2ccccc2-3)cc1	101	72
6	N#CCOC(=O)c1cn(-c2ccccc2)nc1-c1ccccc1	.	126
7	COCCn1c(NN)nc2ccsc2c1=O	101	102
8	COc1cc2c(cc1OC)C(C)N(C(=O)c1c(C)noc1C)CC2 (stereo unspecified)	108	90
9	COc1cc(/C=N/N2C(=O)C(CC(=O)O)SC2=Nc2c(C)n(C)n(-c3ccccc3)c2=O)ccc1O (stereo unspecified)	.	101
10	CNC(=O)N1CCn2cccc2C1C (stereo unspecified)	98	100
11	CCN(CC)S(=O)(=O)c1ccc2c(c1)N(CC(=O)N1CCN(c3cc(Cl)ccc3C)CC1)C(=O)CO2	97	108
12	O=C(c1ccccc1NS(=O)(=O)c1ccc(F)cc1)N1CCCC1	.	107

item	Sa growth 42C second temp	HCMV NEC inh
1	102	-14
2	.	-42
3	80	-22
4	.	-3
5	93	-5
6	104	-9
7	90	.
8	95	2
9	90	-16
10	92	-28
11	88	.
12	94	-3

# The list continues.
item	canonical_smiles	GIV Gai3 FP	Sa growth 42C
13	COC(=O)c1scc(-c2ccc(C)cc2)c1S(=O)(=O)N1CCc2ccccc2C1	105	.
14	CC(=O)Nc1c(C)nc(Nc2ccc(C)cc2)nc1Nc1ccc(C)cc1	101	.
15	O=c1c2nnn(Cc3ccccc3)c2ncn1Cc1ccc(F)cc1	102	86
16	N#CC(C#N)=NNc1ccccc1C(N)=O	97	-0.5*
17	CN(C1CCCCC1)C1CCN(C(=S)Nc2cc(F)cc(F)c2)CC1	108	121
18	COc1ccc(NC(=O)CCS(=O)(=O)c2ccc3c(c2)n(C)c(=O)c(=O)n3C)cc1Cl	98	106
19	Cc1cc(C)c(OCCCN2CCCC2)c(C)c1	98	103
20	CCOC(=O)c1c(NC(=S)N2CCN(C(=O)c3ccco3)CC2)sc2c1CCCCCC2	102	100
21	CNC(=S)Nc1cccc(Cn2cc(Cl)cn2)c1	104	111
22	FC(F)(F)c1cccc(Nc2nc3nonc3nc2Nc2ccc(Cl)cc2)c1	104	43
23	O=C(Cn1c2ncccc2c(=O)n1-c1ccccc1)Nc1ccccc1Cl	109	.
24	Cc1cc2n(n1)C(c1ccccc1)CC(c1ccccc1)=N2 (stereo unspecified)	94	75

item	Sa growth 42C second temp	HCMV NEC inh
13	.	-5
14	.	-2
15	75	-33
16	-0.3*	-164
17	91	.
18	87	-54
19	113	4
20	96	-4
21	78	-7
22	23	-30
23	.	12
24	67	.

# Arranged by formula weight (largest number first): 15 of the compounds above.
item	canonical_smiles	GIV Gai3 FP	Sa growth 42C
11	CCN(CC)S(=O)(=O)c1ccc2c(c1)N(CC(=O)N1CCN(c3cc(Cl)ccc3C)CC1)C(=O)CO2	97	108
20	CCOC(=O)c1c(NC(=S)N2CCN(C(=O)c3ccco3)CC2)sc2c1CCCCCC2	102	100
18	COc1ccc(NC(=O)CCS(=O)(=O)c2ccc3c(c2)n(C)c(=O)c(=O)n3C)cc1Cl	98	106
13	COC(=O)c1scc(-c2ccc(C)cc2)c1S(=O)(=O)N1CCc2ccccc2C1	105	.
23	O=C(Cn1c2ncccc2c(=O)n1-c1ccccc1)Nc1ccccc1Cl	109	.
17	CN(C1CCCCC1)C1CCN(C(=S)Nc2cc(F)cc(F)c2)CC1	108	121
14	CC(=O)Nc1c(C)nc(Nc2ccc(C)cc2)nc1Nc1ccc(C)cc1	101	.
12	O=C(c1ccccc1NS(=O)(=O)c1ccc(F)cc1)N1CCCC1	.	107
15	O=c1c2nnn(Cc3ccccc3)c2ncn1Cc1ccc(F)cc1	102	86
8	COc1cc2c(cc1OC)C(C)N(C(=O)c1c(C)noc1C)CC2 (stereo unspecified)	108	90
24	Cc1cc2n(n1)C(c1ccccc1)CC(c1ccccc1)=N2 (stereo unspecified)	94	75
21	CNC(=S)Nc1cccc(Cn2cc(Cl)cn2)c1	104	111
19	Cc1cc(C)c(OCCCN2CCCC2)c(C)c1	98	103
7	COCCn1c(NN)nc2ccsc2c1=O	101	102

item	Sa growth 42C second temp	HCMV NEC inh
11	88	.
20	96	-4
18	87	-54
13	.	-5
23	.	12
17	91	.
14	.	-2
12	94	-3
15	75	-33
8	95	2
24	67	.
21	78	-7
19	113	4
7	90	.

item	canonical_smiles	GIV Gai3 FP	Sa growth 42C
10	CNC(=O)N1CCn2cccc2C1C (stereo unspecified)	98	100

item	Sa growth 42C second temp	HCMV NEC inh
10	92	-28

# More compounds:
item	canonical_smiles	GIV Gai3 FP	Sa growth 42C
25	COc1ccc(CCn2c(C)cc(C(=O)CN3CCOCC3)c2C)cc1	.	84
26	CC1=C(C(=O)NCCC(C)C)C2(CCN(Cc3ccccc3)CC2)OC1=O	105	.
27	Fc1ccccc1N1CCN(CCCNc2nc(=S)[nH]c3ccccc23)CC1	105	110
28	Cc1onc(-c2ccccc2)c1C1=N/C(=C\c2coc3ccc(Cl)cc3c2=O)C(=O)O1	111	.
29	Cc1cc(NC(=O)NCc2sccc2C)c(C(F)(F)F)o1	106	88
30	COc1ccc(-c2cc(SCCN3CCOCC3)c(C#N)c(-c3ccccc3)n2)cc1	.	102
31	Cn1cnc(S(=O)(=O)N2CCC(C(=O)N3CCOCC3)CC2)c1	109	.
32	CCOC(=O)Cc1ccc(NC(=O)N2CCN(c3nc4cccnc4n(C)c3=O)CC2)cc1	106	.
33	Nc1cnn(-c2cnn(-c3ccccc3)c2)c1	101	.
34	Cc1cc(NC(=O)c2c(-c3ccccc3Cl)noc2C)ccc1Br	103	.
35	COc1cc(/C=C2\C(=O)NC(=O)N(c3ccc(Cl)cc3)C2=O)cc(OC)c1O	158	.
36	c1cc2c(cc1C1=NCCC1)OCCO2	.	91

item	Sa growth 42C second temp	HCMV NEC inh
25	89	-20
26	.	-15
27	74	.
28	.	-4
29	83	-25
30	107	-8
31	.	-6
32	.	-53
33	.	8
34	.	-14
35	.	-34
36	93	-38

# More compounds follow.
item	canonical_smiles	GIV Gai3 FP	Sa growth 42C
37	Cc1ccc(CNC(=O)CCCCn2c(=O)c3ccccc3n(Cc3ccc(C)cc3)c2=O)cc1	107	110
38	C/C(=C\c1ccc(C(=O)O)cc1)c1ccc2c(c1)C(C)(C)CCC2(C)C	101	.
39	CCCC(=O)NCc1nc(-c2ccccc2Cl)no1	96	.
40	CC(C)c1nc2ccc(C(=O)NC(C)c3ccccc3)cc2o1 (stereo unspecified)	104	110
41	Fc1ccc(-c2cc(-c3nc(-c4ccccc4F)no3)[nH]n2)cc1	105	.
42	Cc1ccc(CN2CCN(C3CCN(C(=O)c4ccccc4Br)CC3)C(=O)C2=O)cc1	100	.
43	O=C1OCCC1OC(=O)C1(c2ccc(F)cc2)CCCC1 (stereo unspecified)	.	106
44	Cc1cccc(NC(=O)CC2CCC2)c1	101	123
45	CCOC(=O)c1ccccc1NC(=O)Cn1c(=O)n(CCc2nc(-c3ccccc3)no2)c(=O)c2ccccc21	111	.
46	O=C(Nc1ncn[nH]1)c1ccc(S(=O)(=O)N2CCOCC2)cc1	.	105
47	Nc1nc(CN2CCC(Cc3ccccc3)CC2)nc(Nc2ccccc2)n1	108	111
48	CCN(CC)CCCNC(=O)CCc1cn(-c2ccccc2)nc1-c1ccc(C)cc1	102	.

item	Sa growth 42C second temp	HCMV NEC inh
37	95	5
38	.	-10&-14&-15
39	.	-10
40	101	.
41	.	-24
42	.	-22
43	107	-1
44	105	-7
45	.	-11
46	100	19
47	100	-8
48	.	-4

# Later entries:
item	canonical_smiles	GIV Gai3 FP	Sa growth 42C
49	CCOC(=O)C1=C(CC)Nc2ccccc2N=C1NC(=O)c1nc2nccc(C)n2n1	.	97
50	CCC(Sc1nc(-c2ccc(OC)cc2)nc2c1c(=O)n(C)c(=O)n2C)C(=O)OC (stereo unspecified)	104	107
51	CC(Sc1nc(-c2ccccc2)cc(C(F)(F)F)n1)C(=O)N1CCCCC1 (stereo unspecified)	103	92
52	NC(=O)c1cc(S(=O)(=O)NCC2CCN(Cc3cccc(F)c3)CC2)cs1	108	98
53	CC(=O)N1CCC(N(CCC(C)C)C(=O)Nc2ccccc2)CC1	101	95
54	CC(C)(C)c1ccc(C(=O)OCC(=O)Nc2ccc(C#N)cc2)cc1	.	122
55	O=C(CCC(=O)N1CCC(c2ccccc2)=N1)N1CCN(S(=O)(=O)/C=C/c2ccccc2)CC1	.	103
56	CN(C(=O)C1CCCC1)C1CCS(=O)(=O)C1 (stereo unspecified)	98	91
57	COc1ccc(-c2nn(-c3ccccc3)cc2C2SCC(=O)N2Cc2ccccc2)cc1OC (stereo unspecified)	93	.
58	Cc1cc(Br)ccc1NC(=O)c1ccccn1	103	106
59	O=C(c1ccc(Cl)cc1)N1CCN(c2ccc([N+](=O)[O-])c3ncccc23)CC1	101	.
60	COc1ccc2c(c1)C1C=CCC1C(c1ccc(Cl)cc1Cl)N2 (stereo unspecified)	105	.

item	Sa growth 42C second temp	HCMV NEC inh
49	97	-1
50	93	-30
51	88	.
52	104	6
53	94	.
54	89	-31
55	93	-4
56	93	-21
57	.	-10
58	86	.
59	.	-192
60	.	-23

# The list goes on.
item	canonical_smiles	GIV Gai3 FP	Sa growth 42C
61	Cc1ccc(C(=O)Nc2cc(=O)n(C)c(=O)n2C)cc1	96	102
62	CCOc1ccc(C(C)C)cc1S(=O)(=O)Nc1cccc(-c2ccc(N3CCOCC3)nn2)c1	108	109
63	CC(C)N(Cc1cccs1)C(=O)[C@H]1[C@@H]2C[C@@H]3[C@H]1C(=O)O[C@@H]3C2	105	108
64	COc1ccccc1NC(C)c1cc(Cl)ccc1O (stereo unspecified)	104	121
65	O=C(CN1C(=O)S/C(=C\c2ccco2)C1=O)CN1C(=O)S/C(=C\c2ccco2)C1=O	102	104
66	CCCCNC(=O)C1CC(=O)N(C2CCCC2)C1 (stereo unspecified)	103	103
67	C1=CC2c3cc(-c4ccccc4)ccc3NC(c3ccncc3)C2C1 (stereo unspecified)	114	94
68	N#Cc1nnn(-c2cc(C(F)(F)F)cc(C(F)(F)F)c2)c1N	100	107
69	CCN1CCN(CCNC(=O)c2ccc(CS(=O)c3ccc(Cl)cc3)o2)CC1 (stereo unspecified)	106	88
70	Cc1cc(C(=O)CN2c3ccccc3CC2C)c(C)n1-c1c(C)n(C)n(-c2ccccc2)c1=O (stereo unspecified)	.	89
71	CCOC(=O)C(C)Oc1cc(OC(C)C(=O)OCC)c2c(=O)cc(-c3ccccc3)oc2c1 (stereo unspecified)	108	.
72	CC(C)NC(=O)c1ccc(CN(Cc2ccccc2)C(=O)Nc2ccc(F)cc2)o1	111	107

item	Sa growth 42C second temp	HCMV NEC inh
61	90	-17
62	99	.
63	90	.
64	89	-6
65	80	-52
66	86	-1
67	74	-23
68	88	-10
69	88	-35
70	92	-34
71	.	-12
72	87	-20

# Next results:
item	canonical_smiles	GIV Gai3 FP	Sa growth 42C
73	CC(C)c1nnc(NC(=O)/C=C/c2ccccc2)s1	104	91
74	O=C1CSC(C23CC4CC(CC(C4)C2)C3)N1 (stereo unspecified)	110	73
75	Cc1ccc(N2CCC(C(=O)NC(C)C)C2=O)cc1 (stereo unspecified)	100	.
76	COCc1cc(C)[nH]c(=O)c1C(=O)NC12CC3CC(CC(C3)C1)C2	104	93
77	FC(F)(F)c1cccc(Nc2ncnc3c2nnn3Cc2ccccc2)c1	100	116
78	O=C(NCCCN1CCCCC1)c1ccc2c(c1)sc1nc(-c3ccc(F)cc3)cn12	114	95
79	O=C(COC(=O)[C@@H]1CCCN1S(=O)(=O)c1ccc(Cl)cc1)NCc1ccc2c(c1)OCO2	.	99
80	O=C(Nc1ccccc1)Nc1ccc(-n2ccc(C(F)(F)F)n2)cc1	103	86
81	O=C(NCCCN1CCOCC1)c1cc2n(n1)CCCN(Cc1ccc(Cl)cc1)C2=O	99	.
82	CCOC(=O)c1cc(NC(=O)c2ccc(C)cc2)c(=O)n2c1oc1ccccc12	103	89
83	FC(F)(F)c1cccc(-c2nnc(SCc3ccccc3)o2)n1	101	109
84	CCc1ccc2[nH]c(=O)c(CN(CCN(C)C)C(=O)Nc3ccccc3Cl)cc2c1	103	82
85	N#CSCC(=O)n1c2c(c3ccccc31)CCCC2	100	93

item	Sa growth 42C second temp	HCMV NEC inh
73	89	-20
74	92	.
75	.	-22
76	100	-2
77	89	45
78	74	.
79	96	-18
80	76	-44
81	.	-24
82	92	-15
83	86	-4
84	85	-28
85	98	0
